# MT1-MMP act inh: blocks activation of human MT1-MMP. HT1080 RFP-PRO-GFP cells, GFP/RFP ratio fluorescence, overnight; percent of plate control window, DMSO zero. GFP/RFP ratio change, % at 20 µM. hit rate 0.061% among 360,000. AID 651647;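 active = GFP/RFP ratio change of at least 30% with cell ATP level not reduced by more than half and red fluorescence within 50% of control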; also: strong numbers were not always called active
#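 Assay system: RFP-PRO-GFP reporter HT1080 cells; read-out basis: GFP/RFP fluorescence ratio; benchmarks: DMSO wells and RFP-L50D-GFP cells; doses: 20 µM single dose, 1% DMSO; schedule: overnight cell settling, then overnight compound exposure, 37 °C, 5% CO2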
# Yeast UUG start: modulators of start codon recognition fidelity in yeast; S. cerevisiae UUG-firefly luciferase reporter, luminescence/redox ratio; activity score, % at 18.7 µM; hit rate 0.13% among 350,000; AID 602363;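 active = replicate mean at a twofold rise or more, about +100% in these data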;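 also: firefly luciferase made from a UUG start codon reports start codon fidelity; reporter light over untreated wells divided by growth signal over untreated wells; some hits fall short of that in this replicate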
# Env fusion inh: HIV envelope-mediated fusion inhibition; inhibition, % at 12.3 µM; HeLa-JRFL Env/CEM21 cell fusion, luciferase; AID 651610; hit rate 1.1% among 360,000;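 active = mean replicate inhibition score of at least 50 and every replicate individually at or above 50; inconclusive = only one of the two criteria met; inactive = mean below 50 and not all replicates reaching 50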;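 also: 0% = plate neutral controls and 100% = maraviroc near 300 nM; one replicate is shown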
# Rce1 inhib: blocks yeast Ras-converting enzyme; Q03530; yeast membranes, quenched prenylated peptide cleavage fluorescence; calls only; hit rate 0.27% among 290,000; AID 2563;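 active = fall in fluorescence gain of 50% or more versus controls, with final raw signal at or below 3038400; inconclusive = same 50% fall but final raw signal above 3038400; inactive = fall in fluorescence gain under 50%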;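 also: plate controls were neutral control wells for no effect and wells lacking membranes for full effect; tested at 10 µM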
# Target sequence (Q03530 whole entry, looked up): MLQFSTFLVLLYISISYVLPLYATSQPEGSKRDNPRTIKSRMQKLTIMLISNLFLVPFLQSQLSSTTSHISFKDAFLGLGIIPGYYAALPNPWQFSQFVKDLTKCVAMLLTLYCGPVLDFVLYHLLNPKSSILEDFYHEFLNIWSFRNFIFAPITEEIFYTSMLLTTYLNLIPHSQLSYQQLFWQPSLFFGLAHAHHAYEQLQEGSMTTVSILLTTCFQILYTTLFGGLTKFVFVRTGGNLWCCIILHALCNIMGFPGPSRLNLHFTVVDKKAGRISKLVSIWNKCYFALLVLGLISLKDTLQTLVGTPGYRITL
# CSC inhib: blocks cancer stem cells; cancer stem cell-like cells viability, luminescence; inhibition, % at 7.5 µM; hit rate 1.1% among 300,000; AID 2717;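 active = mean at 75% or more and at least half the replicates too; inconclusive = mean and replicates disagree; tested in HMLE shEcad cells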;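 also: 0% = median of negative and 100% = median of positive control wells; the first replicate is given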
# PABP polyA inh: PABP-poly(A) binding inhibition; P11940; PABP-poly(A) RNA binding, fluorescence polarization; inhibition, % at 35 µM; hit rate 1% among 290,000; AID 2014;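 active = 50% or more with normal probe brightness, or confirmed in later tests; inconclusive = above 50% with abnormal brightness, or retests that disagree; inactive = below 50% or failed in later tests; about a fifth of its hits are not listed in these tables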;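 also: calls also rest on retests at 20 µM and on dose response follow-up; controls were probe without protein and protein plus probe with vehicle; some compounds called inactive have numbers as strong as hits; many hits fall short of the cut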
# eIF4H inh: inhibitors of RNA binding by human eIF4H. Q15056. eIF4H fluorescence polarization binding assay. inhibition, % at 35 µM. hit rate 0.94% among 290,000. AID 2012;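 active = 50% or more with normal probe brightness, or confirmed in later tests; inconclusive = above 50% with abnormal brightness, or retests that disagree; inactive = below 50% or failed in later tests; about a fifth of its hits are not listed in these tables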;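 also: calls also rest on retests at 20 µM and on dose response follow-up; 0% = protein and probe with vehicle and 100% = probe without protein; strong numbers were not always called active; many hits fall short of the cut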
# eIF4H inh retest: second read-out of eIF4H inh, no call of its own (marks repeat the call); inhibition, %; compound at 20 µM; confirmation average;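 mean of two retest wells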
# PABP polyA inh retest: further read-out of PABP polyA inh, marked with its call; inhibition, %; compound at 20 µM; confirmation repeats;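 mean of two retest wells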
# MT1-MMP act inh RFP: second read-out of MT1-MMP act inh, no call of its own (marks repeat the call); RFP signal change, %; measured here: RFP expression control read;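 0 = vehicle wells; hits needed this value within 50% of zero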
# * hit, by the source's call; i = inactive; u = inconclusive; x = no result given; + = active, no number.
SMILES,MT1-MMP act inh,MT1-MMP act inh RFP,Yeast UUG start,Env fusion inh,Rce1 inhib,CSC inhib,PABP polyA inh,eIF4H inh,others
CC1CCCCN1S(=O)(=O)c1cnc(Cl)c(Br)c1 (stereo not given),-7,-4,x,x,i,6,-2,-4,
CCOC(=O)CCC(=O)N1CCOCCOCCN(C(=O)CCC(=O)OCC)CCOCCOCC1,0,4,-4,-7,i,-10,6,-4,
O=c1c(Br)c(NCc2ccccc2)cnn1-c1ccc(F)cc1,3,0,x,14,i,0,10,-9,
CCOC(=O)/C=C1\CN(CCC(C)C)S(=O)(=O)c2ccccc21,-1,0,-1,8,i,5,4,-1,
CC(NC(=O)c1ccc([N+](=O)[O-])o1)C1CC2CCC1C2 (stereo not given),11,-8,-11,x,x,55,x,x,
Cc1cccc(C(=O)NCN2CCN(c3ccccc3C#N)CC2)c1,1,4,-16,-14,x,x,x,x,
O=C1CCSc2ccc(Cl)cc2N1Cc1cccc(Cl)c1,-5,-8,4,x,i,7,13,-2,
O=C(NCCc1ccc(Cl)cc1)C1CCC(=O)N1Cc1ccc(F)cc1 (stereo not given),1,-1,-16,0,i,6,1,2,
C=CC[C@@H](CC(=O)N(CCO)Cc1ccccc1)C(=O)N[C@H](COC(=O)[C@@H](CC=C)CC(=O)OC(C)(C)C)Cc1c[nH]c2ccccc12,-5,-7,-9,-38,x,-4,x,x,
Nc1nonc1-n1nnc(C(=O)N/N=C/c2ccccc2)c1CSc1ccc(Cl)cc1,3,15,x,7,+,2,3,0,
Cc1ccc(-n2c(-c3c(-c4ccccc4)noc3C)n[nH]c2=S)cc1,-1,4,-4,-140,i,x,11,-2,
O=C(Nc1ccccc1F)c1ccc(CN2CCN(c3ccccc3)CC2)cc1,1,-20,-7,11,i,19,-3,-6,
O=C(COC(=O)c1cc(=O)[nH]c(=O)[nH]1)NCc1ccccc1,-4,1,x,-7,i,-18,2,2,
c1ccc(-c2ccc(-c3ccccn3)s2)nc1,1,-2,-20,-132,u,-7,5,-7,
CCOC(=O)c1sc(C)c2c(=O)n(Cc3ccc(Cl)cc3)cnc12,-1,-3,x,10,i,-6,-5,-9,
C#CCOc1nc(C)cc(C)c1S(=O)(=O)c1ccccc1C,-1,-2,x,4,i,-1,-3,-6,
CS(=O)(=O)N1CCN(C(=O)c2cc(-c3ccncc3)nc3ccc(Cl)cc23)CC1,8,11,-6,x,i,-11,-5,1,
COc1ccc(NS(=O)(=O)c2ccc3c(c2)CCN3C(=O)CCC(=O)O)cc1OC,6,4,-12,-8,i,2,-5,-6,
O=C(CSc1nc2ccccc2n1CC(=O)N1CCCC1)NCc1ccc2c(c1)OCO2,0,-2,-5,-41,i,0,2,-2,
COc1cccc(C(NC(C)=O)c2nc(-c3cccc(O)c3)cs2)c1 (stereo not given),2,2,-16,-1,x,x,x,x,
O=S(NC1CCCCC1)C12CC3CC(CC(C3)C1)C2 (stereo not given),-1,-7,-2,-23,i,-9,4,-13,
CN(CC(=O)Nc1ccc(N2CCOCC2)cc1)CC(=O)Nc1ccc(N2CCOCC2)cc1,-2,6,x,-4,i,-13,14,-10,
O=C(Nc1ccncc1)c1ccc2ncsc2c1,2,-4,-19,1,i,x,x,x,
CCC(C)C(CO)NCCCn1ccc(NC(=O)OCc2ccccc2)nc1=O (stereo not given),6,6,0,21,x,x,x,x,
O=C1c2cccnc2C(=O)N1Cc1ccc(S(=O)(=O)N2CCN(c3ccc(Cl)cc3)CC2)cc1,-3,0,x,1,i,-5,-20,-21,

# Quoted at random: 3 records from the list.
SMILES,MT1-MMP act inh,MT1-MMP act inh RFP,Yeast UUG start,Env fusion inh,Rce1 inhib,CSC inhib,PABP polyA inh,eIF4H inh,others
O=C1c2cccnc2C(=O)N1Cc1ccc(S(=O)(=O)N2CCN(c3ccc(Cl)cc3)CC2)cc1,-3,0,x,1,i,-5,-20,-21,
O=C1CCSc2ccc(Cl)cc2N1Cc1cccc(Cl)c1,-5,-8,4,x,i,7,13,-2,
COc1ccc(NS(=O)(=O)c2ccc3c(c2)CCN3C(=O)CCC(=O)O)cc1OC,6,4,-12,-8,i,2,-5,-6,

# The results go on.
SMILES,MT1-MMP act inh,MT1-MMP act inh RFP,Yeast UUG start,Env fusion inh,Rce1 inhib,CSC inhib,PABP polyA inh,eIF4H inh,others
Cc1ccc(S(=O)(=O)Nc2nc(CN3CCOCC3)nc3sc(C(=O)O)c(C)c23)cc1,-2,1,-8,-25,x,x,x,x,
CCOC(=O)C1=CCN(S(=O)(=O)c2ccccc2Br)C1c1ccccc1 (stereo not given),0,-6,-6,20,x,x,x,x,
O=C1c2ccccc2C(Nc2cccnc2)N1Cc1ccccc1Cl (stereo not given),-1,0,-24,-9,i,-9,-3,-6,
CC1(C)C2CCC(C2)C1(C)NC(=O)CN1CCCC1 (stereo not given),0,6,0,-7,i,-7,10,24,
Cc1ccc(CN(C)C(=O)c2cc(S(=O)(=O)N3CCOCC3)ccc2F)o1,3,0,-5,x,x,-12,x,x,
C=CCC[C@H](Cc1ccc(F)cc1)C(=O)OC[C@H](Cc1c[nH]c2ccccc12)NC(=O)[C@H](CC=C)CC(=O)NCCO,-1,-7,-11,0,x,7,x,x,
COc1cccc(C(c2c(NC(=O)c3ccccc3)sc(C)c2C)N2CCN(C)CC2)c1 (stereo not given),-3,-4,x,x,i,x,-4,-4,
CC(=O)Oc1ccc(Cn2cnc3cc4ccccc4cc32)cc1,6,7,-22,-68,x,-8,11,-4,
COc1ccccc1NC(=O)Nc1nc(C(N)C(C)C)cs1 (stereo not given),-9,-4,-17,-9,x,x,x,x,
Cc1nnc(N(C)C(=O)c2ccc3c(c2)OCO3)s1,-2,1,-17,-5,i,-4,-4,-6,
COc1ccc(CCC(N)=O)cc1OC,-4,2,-9,x,i,-9,-6,-4,
c1cc(-c2nn[nH]n2)ccc1CN1CCCCC1,1,-2,-13,x,i,-13,11,-7,
COc1cc(COc2ccc3c(C)c(CCC(=O)O)c(=O)oc3c2)cc(OC)c1OC,1,2,3,6,i,0,27,0,
Cc1cc(C(=O)CC#N)c(C)n1-c1c(C)n(C)n(-c2ccccc2)c1=O,2,4,x,-6,i,-8,-1,10,
CCOC(=O)c1ccc(NC(=S)Nc2ccc3[nH]c(=O)[nH]c3c2)cc1,4,4,-33,17,i,-6,-5,1,
COc1cccc(NC(=O)COC(=O)c2ccc(F)cc2F)c1,-2,0,-6,0,i,-9,11,-6,
CCOC(=O)COc1cc(OCC(=O)OCC)c2c3c(c(=O)oc2c1)CCCC3,1,-1,-7,-14,i,0,2,-5,
CCn1c(=N)n(CC(=O)c2ccc(Cl)c(Cl)c2)c2ccccc21,-3,-1,x,-37,i,42,6,-12,
Cc1occc(=O)c1OCc1c(F)cccc1Cl,1,2,x,-41,i,-3,-2,-12,
CC1CS(=O)(=O)CCN1N=Cc1ccc([N+](=O)[O-])o1 (stereo not given),4,2,8,-30,x,0,x,x,
CC1=C(C)C(c2ccccc2)NC(=S)N1 (stereo not given),0,1,x,-14,i,-14,-3,10,
Cc1cc(C)n2nc(SCCOc3ccc(F)cc3)nc2n1,3,3,x,-13,i,0,48,-4,
CN(C)/C=C/C(=O)C(F)(F)F,-1,1,x,6,i,2,29,-7,
C=CCOc1nc2sc(C)c(C)c2c(=O)n1-c1ccccc1,6,4,-27,-8,i,x,2,-3,
Cc1ccc(S(=O)(=O)N2CCCCC2)cc1NC(=O)CN1C(=O)c2ccccc2S1(=O)=O,2,2,-21,x,x,-10,x,x,
# (cont.)
SMILES,MT1-MMP act inh,MT1-MMP act inh RFP,Yeast UUG start,Env fusion inh,Rce1 inhib,CSC inhib,PABP polyA inh,eIF4H inh,others
Cc1cc(=O)oc(C)c1C(=O)N1CCN(c2ccc(F)cc2)CC1,-1,-2,-7,x,i,-9,-4,5,
COc1ccc(C2Nc3ccccc3C(=O)N2NC(C)=O)c(OC)c1 (stereo not given),1,0,-22,-17,i,-6,-6,11,
O=C1NCCCC1C(=O)N/N=C/c1ccc([N+](=O)[O-])cc1 (stereo not given),1,2,-10,-5,i,-2,-6,-3,
COc1ccccc1Cc1c(-c2ccc(F)cc2)nc2ccc(Br)cn12,-1,7,-9,-18,x,x,x,x,
CCC(C)(C)NC(=O)C(c1ccc(F)cc1)N(Cc1ccco1)C(=O)c1snc(C(N)=O)c1N (stereo not given),4,0,-13,x,i,-7,2,10,
C/C(=N\NC(=O)C(=O)Nc1cccc(Cl)c1C)c1ccncc1,-1,0,-4,-39,i,-3,-4,-6,
COc1ccc(Cl)cc1C(=O)Nc1cccc2ncccc12,0,-4,-16,10,i,-11,7,-6,
COc1ccc(S(=O)(=O)N2CCOCC2)c(Cl)c1Cl,-4,-1,-12,x,i,-7,11,-1,
COC(=O)CNC(=O)Cn1cnc2sc(C)c(S(=O)(=O)N3CCC(C)CC3)c2c1=O,0,3,x,-78,x,3,-5,4,
COC(=O)c1cccc(Nc2nc(-c3cccnc3)nc3ccccc23)c1,-7,-9,-7,-1,i,31,-27,-23,
Cc1nc(NCCc2ccccc2)sc1C(=O)O,1,1,-20,-8,i,25,17,-7,
Cc1c(C)c2ccc(OC(C)C(=O)NCCCN3CCOCC3)c(C)c2oc1=O (stereo not given),2,2,-22,-2,+,-3,-5,-1,
Cc1[nH]c(=S)c(C#N)c(C)c1Cc1ccccc1,2,2,-30,7,i,11,14,-6,
COc1cc(C(=O)Nc2sc3c(c2C#N)CCN(C(C)=O)C3)cc(OC)c1OC,5,2,3,20,i,12,16,-2,
O=C(CN1CCN(Cc2ccccc2)CC1)Nc1ccc(Cl)cn1,-4,2,-13,26,i,0,-1,-3,
CCOc1cc(-c2conc2N)cc(OCC)c1OCC,-3,0,-12,-14,i,6,4,-3,
CN1CCN(C(=O)c2cccc(-c3ccc4nncn4c3)c2)CC1,3,2,-7,-3,x,x,x,x,
CN1CCN(C(=O)CN(C)S(=O)(=O)c2ccc3ccccc3c2)CC1,2,0,x,-1,i,-5,-5,-8,
Cc1ccc(CN2CC(C(=O)O)CC2=O)cc1 (stereo not given),0,2,-6,10,x,-14,-3,2,
O=C(CCN1C(=O)/C(=C/c2ccccc2F)SC1=S)Nc1cccnc1,0,1,-9,2,i,-7,3,-15,
Cc1oc(-c2ccccc2Cl)[n+]([O-])c1C,7,3,-4,-44,i,-10,-5,-5,
Cc1nnc(NC(=O)CSc2nnc3scc(-c4ccc(C)c(C)c4)n23)s1,-5,1,x,2,i,-5,-2,-10,
CC(=O)Nc1nc(CC(C)C)cc2c1c(=O)oc1ccccc12,-5,0,-10,x,i,-12,7,3,
CCc1nn(CC(=O)NC(C)CCc2ccccc2)c(=O)c2cc3occc3n12 (stereo not given),0,0,-15,4,i,-4,-1,-8,
O=C(N[C@H](C(=O)O)c1ccccc1)C1CCC(Cn2nnc3ccccc3c2=O)CC1 (stereo not given in full),x,x,x,x,i,-8,-4,8,
C=CCNC(=S)N/N=C(\C)c1ccc(OC)cc1,4,-1,x,-8,i,-6,6,8,
O=C(c1ccccc1)N1CCN(c2ncnc3c2cnn3-c2ccccc2)CC1,-2,-7,-1,x,i,-3,-3,2,
CC(NC(=O)Nn1cnnc1)(C(F)(F)F)C(F)(F)F,-7,-5,-24,x,i,1,8,3,
CCOc1ccc(NC(=O)CC2CC(C)(C)OC2=O)cc1 (stereo not given),8,4,-12,8,i,3,-7,0,
COc1ccc2ccccc2c1/C=N/Nc1cccc(C(=O)O)c1,1,4,3,-22,i,-9,6,98,eIF4H inh retest=6;PABP polyA inh retest=-3

# Compound activity: PubChem, several laboratories
